# UCH37 DUB inh = inhibitors of human deubiquitinating enzyme UCH37; actives 0.33% (n = 330,000); purified proteasome/UCH37, Ub-AMC cleavage fluorescence; inhibition, % (concentration not given with the values);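 active = mean of two replicates above 20%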;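 also: 0% = compound-free wells with enzyme and 100% = wells lacking proteasome; stock transfer was 100 nL into about 20 µL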
# Target sequence (Q9Y5K5 whole entry, looked up): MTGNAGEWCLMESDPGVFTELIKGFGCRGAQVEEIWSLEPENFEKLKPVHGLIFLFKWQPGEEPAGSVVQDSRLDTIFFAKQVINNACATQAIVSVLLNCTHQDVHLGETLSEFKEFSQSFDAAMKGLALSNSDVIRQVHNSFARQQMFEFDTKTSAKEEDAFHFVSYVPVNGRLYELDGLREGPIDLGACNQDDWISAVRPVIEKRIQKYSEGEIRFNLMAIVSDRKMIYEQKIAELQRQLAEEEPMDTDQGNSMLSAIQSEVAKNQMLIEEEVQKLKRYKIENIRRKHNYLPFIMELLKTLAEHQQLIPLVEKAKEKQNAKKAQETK
#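 Test system – human UCH37 enzyme supplied as purified proteasome complex · Incubation – 30 min preincubation with enzyme, 25 min cleavage at room temperature · Detection – AMC fluorescence from Ub-AMC cleavage, excitation 355 nm, emission 460 nm · Benchmarks – no-proteasome wells (full inhibition) and compound-free wells (no inhibition)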
# HNF4A DNA FP = change in binding of human HNF4 alpha to DNA; HNF4a-FITC DNA binding, fluorescence polarization, 1 h; activity change, % at 10 µM; actives 0.3% (n = 360,000); in the data active = activity change above about 30%, passing the limit was not always enough;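 also: controls were the assay level and a saturating level of protein; the project sought stronger binding though the title names inhibitors; some compounds called inactive have numbers as strong as hits; positive values seem to mean higher polarization but the record does not say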
# Target sequence (P41235 whole entry, looked up): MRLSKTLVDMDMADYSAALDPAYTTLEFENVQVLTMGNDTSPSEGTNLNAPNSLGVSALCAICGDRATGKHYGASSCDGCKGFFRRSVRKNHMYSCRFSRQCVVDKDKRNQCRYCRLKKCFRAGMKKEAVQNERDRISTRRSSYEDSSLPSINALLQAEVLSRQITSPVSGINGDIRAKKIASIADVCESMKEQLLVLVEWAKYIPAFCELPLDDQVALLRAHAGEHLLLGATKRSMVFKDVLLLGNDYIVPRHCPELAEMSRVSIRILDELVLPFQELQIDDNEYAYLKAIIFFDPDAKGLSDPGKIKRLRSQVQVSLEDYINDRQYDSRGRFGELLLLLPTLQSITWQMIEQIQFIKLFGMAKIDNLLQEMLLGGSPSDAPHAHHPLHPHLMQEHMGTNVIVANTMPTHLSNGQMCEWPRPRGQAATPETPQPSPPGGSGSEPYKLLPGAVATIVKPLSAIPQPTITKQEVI
# B2AR ag = human beta-2 adrenergic receptor agonism by FAP; actives 0.43% (n = 340,000); response, % (no concentration beside the values); Am2.2-beta2AR cells, FAP receptor internalization, flow cytometry; reference of the scale not given here;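 active = response above a set limit, near 3 SD of response in nonfluorescent compounds, cut at about 42% in these data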;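 also: stock transfer was 100 nL into about 11 µL; a reference agonist was the positive control; negative values mostly stem from fluorescent compounds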
# Ecoli growth = E. coli growth inhibition; actives 0.21% (n = 330,000); AID 1053175; OD600 absorbance (concentration not given with the values); Escherichia coli growth, OD600, 23 h; hits give low values;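 active = OD600 absorbance below the run mean of sample wells minus 3.6 SD, in any replicate, cut at about 0.56 in these data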;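 also: stock transfer was 300 nL into about 60 µL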
# LANA-H2B inh = blocks KSHV LANA binding to histone H2A/H2B; cell-free LANA-H2A/H2B peptide, fluorescence polarization; inhibition, % (concentration not given with the values); actives 0.6% (n = 320,000); in the data active = inhibition mostly above about 10%, no sharp cut-off; inactive = mostly below about 6.7%;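 also: stock transfer was 7.5 nL into about 10 µL; 0% = median of vehicle wells and 100% = median of positive control wells; one replicate is shown; the record names a cut of 25% in any replicate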
# Bfl-1 A1 inh = inhibitors of the anti-apoptotic protein A1, read as caspase activation. AID 2462. MEF A1-2A-BIM cells, Caspase-Glo 3/7 luminescence, 3 h; percent of clofoctol response, vehicle zero. actives 0.066% (n = 330,000). caspase activation, % (test concentration not listed);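 active = over half of replicate activation scores above 10%, or exactly half above 10 with the replicate mean above 10; inconclusive = replicate mean below 10 yet half the replicates above 10; inactive = over half of replicates below 10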;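 also: wells of about 30 µL received 50 nL stock; many hits fall short of the cut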
# Vif TR-FRET = HIV-1 Vif–A3G interaction blockers – biochemical, TR-FRET, GST-Vif 1-94, biotin-A3G peptide, dose response retest, primary screen (AID 1117319); TR-FRET GST-Vif / biotin-A3G peptide binding; higher % means a stronger effect; test concentration not given here; strong numbers were not always called active; inhibition, %; hits with a dose series show IC50 in µM; actives 0.57% (n = 260,000);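 active = above the screen mean plus three standard deviations and confirmed in dose response; inconclusive = results disagree or hit not tested in dose response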;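 also: Vif residues 1-94 fused to GST binding biotinylated APOBEC3G peptide 110-148; 0% = full assay without inhibitor and 100% = GST in place of GST-Vif; retest series ran down from 100 µM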
# * = called active by the depositor; i = inactive; ? = inconclusive; . = not tested or not shown; & = joins results of further samples.
SMILES,UCH37 DUB inh,HNF4A DNA FP,B2AR ag,Ecoli growth,LANA-H2B inh,Bfl-1 A1 inh,Vif TR-FRET
COc1ccc(OC)c(NC(=O)CSc2nnnn2C)c1,3.4,-1.2,3.5,0.69,-0.3,-0.6,-12.9%
COC(=O)c1cc2c(ccc3ccccc32)oc1=O,i,-1.2,3.1,0.616,0.5,-0.1,.
O=C(CCC(=O)N(CC(=O)NC1CCCC1)Cc1ccccc1Cl)Nc1nccs1,0.6,0.0,3.9,0.614,0.7,2.4,.
COc1ccc(CCN2CCCn3c2nc2c3c(=O)[nH]c(=O)n2C)cc1OC,2.8,-0.1,-3.2,0.693,0.9,0.9,-3.7%
CCOc1nc(NC(=O)NS(=O)(=O)Oc2cccc(Cl)c2)nc(-c2ccccc2)n1,1.2,0.6,-2.1,0.683,.,.,.
CCC(C(=O)Nc1cc(OC)c(NC(=O)c2ccccc2)cc1OC)c1ccccc1 (stereo unspecified),4.2,0.6,3.8,0.698,4.5,2.6,-0.4%
COC(=O)c1ccc(CN2CCN(CCC(C)C)C(CCO)C2)cc1 (stereo unspecified),5.1,-0.6,-2.7,0.713,-1.5,0.2,-4.4%
CCN(CC(=O)NC1CCS(=O)(=O)C1)S(=O)(=O)c1ccc(Cl)c(C(F)(F)F)c1 (stereo unspecified),2.2,2.2,-3.6,0.628,.,.,5.4%
S=C(NCc1ccco1)N/N=C/c1cccnc1,.,0.5,-6.5,.,4.9,-0.1,-9.1%
CCn1c(C)c(C)c2cc(C(=O)NCCc3ccco3)ccc21,.,5.7,16.1,.,4.6,0.4,.
Fc1ccccc1/C=N/n1c(-c2cccnc2)n[nH]c1=S,.,2.7,10.2,.,-12.6,0.2,14.2%
Cn1c(OCc2cccnc2)nc2c1c(=O)n(Cc1ccc(Br)cc1)c(=O)n2C,2.0,-1.1,5.7,0.69,2.5,-0.3,3.4%
CN(CCNC(=O)C1CCN(S(=O)(=O)N2CCOCC2)CC1)CCc1ccccc1,1.8,-2.4,5.7,0.727,2.4,-0.2,-6.9%
CC(=O)c1ccc(NC(=S)N2CCN(c3ccccn3)CC2)cc1,1.2,6.0,2.5,0.636,0.7,1.6,.
CN(CC1COc2ccccc2O1)C(=S)Nc1ccccc1 (stereo unspecified),-2.0,-1.6,-3.0,0.682,-0.6,1.0,.
CC1CCCN(C(=O)CN(C)S(=O)(=O)c2cccc3nsnc23)C1 (stereo unspecified),2.4,4.3,7.0,0.703,-3.6,1.3,.
O=C(Nc1ccccc1)Nc1ccc(O)c2ccccc12,-17.6,.,-2.4,0.598,2.6,0.0,.
COc1ccc(C(=O)NCc2nnc(SCC(=O)Nc3ccccc3F)o2)cc1,4.7,2.3,-1.8,0.707,2.6,0.5,-3.7%
CCC(=O)N1CCc2cc(Br)cc(S(=O)(=O)NCCCN(C)Cc3ccccc3)c21,3.2,-1.1,-5.7,0.704,-0.3,0.1,1.0%
CCOc1cc(/C=N/n2nnnc2N)ccc1OCc1c(C)no[n+]1[O-],.,5.3,9.1,.,5.2,0.5,?
COCc1c(C(=O)Nc2nc(C)cs2)oc2ccccc12,6.3,0.4,-11.6,0.658,2.7,-0.7,6.8%
COc1ccc(N2CCN(C(=O)c3ccc(CNS(=O)(=O)c4cc(C)ccc4C)cc3)CC2)cc1,-1.1,-0.7,-0.6,0.713,-13.0,0.3,.
Cc1cc(-c2ccccc2)n(-c2ccc(C(N)=O)cc2)n1,-0.1,-0.3,-10.2,0.629,-5.6,0.1,.
O=C(CCOc1ccccc1)Nc1ccnn1C1CCN(Cc2ccc(F)cc2)CC1,2.1,3.7,-6.5,0.693,-1.4,0.0,.

# Pulled by compound from the list above (2):
SMILES,UCH37 DUB inh,HNF4A DNA FP,B2AR ag,Ecoli growth,LANA-H2B inh,Bfl-1 A1 inh,Vif TR-FRET
CC(=O)c1ccc(NC(=S)N2CCN(c3ccccn3)CC2)cc1,1.2,6.0,2.5,0.636,0.7,1.6,.
COCc1c(C(=O)Nc2nc(C)cs2)oc2ccccc12,6.3,0.4,-11.6,0.658,2.7,-0.7,6.8%

# (further entries)
SMILES,UCH37 DUB inh,HNF4A DNA FP,B2AR ag,Ecoli growth,LANA-H2B inh,Bfl-1 A1 inh,Vif TR-FRET
O=C1CN(C(=O)c2cccc(Br)c2)c2ccccc2N1,-2.4,1.0,3.8,0.635,-0.3,0.5,-8.8%
C=CC#CC1(O)CC(C)[N+](C)(C)CC1C (stereo unspecified),1.2,2.4,3.6,0.684,4.6,2.0,-7.1%
COc1cccc(NC(=O)c2nnn(Cc3ccc(Br)cc3F)c2N)c1,-0.7,-1.5,-2.3,0.777,-2.8,0.1,-0.7%&-7.4%
Cc1ccc(C)c(CN2C(=O)COc3ccc(C(=O)c4ccccc4C(=O)O)cc32)c1,4.1,2.1,7.8,0.695,10.3,0.4,.
CSC[C@H](NC(=O)COc1cc2c(c3oc(=O)cc(C)c13)CCC(C)(C)O2)C(=O)O,i,4.9,-0.3,0.708,-9.5,1.6,-1.0%
Cc1ccc(OCC(=O)N2CCN(C(=O)c3ccco3)CC2)cc1,3.2,2.0,-2.8,0.705,5.4,-0.1,.
CCOC(=O)c1sc(CS(=O)(=O)c2ccc(Cl)cc2)nc1C,2.2,-6.1,-14.7,0.64,-3.4,0.3,5.2%
O=c1cnnc(Nc2cccc(C(F)(F)F)c2)[nH]1,-0.3,-1.1,-4.7,0.679,0.2,0.0,4.2%
COCC(N)(c1ccccc1)c1nc2ccccc2n1C (stereo unspecified),3.2,3.6,7.4,0.699,2.0,-0.6,-0.5%
O=C(Cc1ccccc1[N+](=O)[O-])NC1CC2CCC1C2 (stereo unspecified),0.7,0.9,2.5,0.694,-3.7,0.1,.
Cc1cc(Cl)ccc1OCc1nnc2n1CCCCC2,0.5,3.9,-12.1,0.61,-1.3,0.8,.
O=c1[nH]cccc1-c1nc2ccccc2n1Cc1cccc(Cl)c1,-219.8,0.0,0.5,0.672,1.5,-0.3,-7.7%
Cc1noc(/C=C/N(C)C)c1S(=O)(=O)N1CCCC(C(=O)NC2CCCCC2C)C1 (stereo unspecified),16.4,-2.5,-0.4,0.78,1.7,0.2,3.2%
CCN(CC)c1ccc(CNc2nc3ccccc3n2CC)cc1,3.5,0.5,0.9,0.625,-2.2,1.0,19.6%
COc1ccccc1-c1sc2ccccc2c1-c1ccc2c(c1)OCCO2,3.4,1.0,1.2,0.705,2.5,0.8,.
CC1=C(/C=C/C(C)=N\NC(=O)c2ccncc2)C(C)(C)CCC1,.,-13.8,2.1,.,2.9,0.4,.
CCN(CC)S(=O)(=O)c1ccc(NC(=S)Nc2ccc(F)cc2)cc1,3.8,3.6,-3.2,0.693,2.7,0.7,-2.2%
COCCCn1c2nc3ccccc3nc2c2c(=O)n(Cc3ccc(Cl)cc3)cnc21,-73.4,-1.7,-12.1,0.727,-1.0,-0.5,22.6%
O=C(Cc1nc(-c2ccc(Br)s2)cs1)NCCN1CCOCC1,2.4,4.2,-2.5,0.721,0.6,0.5,0.3%
Cn1c(=O)c2c(nc(Br)n2CC(=O)C23CC4CC(CC(C4)C2)C3)n(C)c1=O,1.6,-0.1,6.0,0.656,4.1,1.2,2.2%
O=C(NCCCN1CCOCC1)C(=O)NCC1OCCCN1S(=O)(=O)c1cc(F)ccc1F (stereo unspecified),2.9,7.3,0.0,0.709,0.2,2.4,-1.3%
COc1cccc(-c2cc(=O)[nH][nH]2)c1,1.9,1.4,-1.6,0.698,0.8,0.4,2.2%
CC(Nc1nc(-c2ccc(F)cc2)cs1)c1nc2cc(Cl)c(N3CCCCC3)cc2n1CCOCCO (stereo unspecified),1.7,1.8,3.4,0.702,-10.5,0.5,.
CC(C)C(=O)N(Cc1ccccc1)S(=O)(=O)c1ccc2c(c1)oc(=O)n2C,2.4,11.4,-134.8,0.679,-0.4,0.0,-5.5%
COC(=O)Cc1ccc(NC(=S)NCCC(C)C)cc1,-1.6,-3.7,2.4,0.64,-4.7,0.4,-1.8%
Cc1ccc(S(=O)(=O)C2(C(=O)NCc3ccccc3Cl)CC2)cc1,-2.9,0.9,-2.5,0.682,0.7,0.3,.
CC(C)CN(C(=O)CCC(=O)OCc1ccc(Cl)cc1Cl)c1c(N)n(CC(C)C)c(=O)[nH]c1=O,-0.8,4.6,3.8,0.67,5.0,-0.2,0.7%
O=C(Nc1ccccc1Cl)N1CCSc2ccccc21,4.6,-1.1,-4.0,0.78,-2.0,0.2,-2.0%
CCN1CCN(Cc2ccc(NC(=O)c3cc(NC(=O)c4cnnc5ccccc45)cc(OC)c3)cc2C(F)(F)F)CC1,-2.0,4.9&-2.2,3.8,0.674,-3.5,1.6,1.3%&-3.2%
COc1ccc(NS(=O)(=O)c2ccc(N3CCCCC3)c(N)c2)cc1,4.1,0.5,-4.8,0.694,1.1,-0.9,.
COc1cc(/C=C/C(=O)c2ccc3c(c2)OCCO3)cc(OC)c1OC,5.2,-2.4,-2.9,0.667,2.5,1.0,-4.1%
CC1CCCN(c2nc(-c3cccnc3)nc3scc(-c4ccccc4)c23)C1 (stereo unspecified),-25.6,6.4,2.6,0.668,-11.5,0.1,.
O=C(COC(=O)CCCN1C(=O)c2cccc3cccc(c23)C1=O)Nc1cccc(C(F)(F)F)c1,.,-1.0,1.4,.,-0.1,-0.3,-12.8%
Cc1ccc(C(=O)Nc2cccc(C(F)(F)F)c2)cc1Nc1cncnc1,1.8,-3.4&-1.6,-1.8,0.663,1.4,0.3,-4.6%
Cc1ccccc1-c1nnc(-c2cccc3ccccc23)o1,-48.6,-3.5,-5.0,0.665,.,.,-4.2%
CCCCNC(=O)CSc1nc2ccc(N3CCOCC3)cc2c(=O)n1Cc1ccc(OC)cc1,-67.3,0.3,-6.6,0.701,.,.,19.0%
Cc1cc(=O)oc(C)c1C(=O)N[C@@H](Cc1ccccc1)C(=O)O,0.9,-1.0,-1.6,0.626,-2.6,-0.1,8.0%
CCN(CC)C(=O)Cn1nc(-c2ccc(Cl)cc2)c2ccccc2c1=O,1.4,4.8,-9.9,0.671,1.3,1.0,.
CN(C)C(=O)c1ccc2c3c(cccc13)CC2,0.3,0.5,0.6,0.677,-6.0,0.3,30.8%
O=C(CCS(=O)(=O)c1ccccc1Cl)Nc1ccc(S(=O)(=O)Nc2ncccn2)cc1,1.0,-0.7,1.6,0.705,4.0,-0.1,-2.2%
CC(C(=O)NC1=NCCS1)N1C(=O)C2CC=CCC2C1=O (stereo unspecified),4.5,-26.6,9.2,0.747,-0.2,-0.6,-1.1%
FC(F)(F)c1ccc(NC(=S)NCc2ccccc2)cc1,8.0,3.3,-2.1,0.531,-0.4,0.0,0.7%
O=C(NN1CCN(Cc2ccccc2)CC1)c1ccc(N2CCOCC2)c([N+](=O)[O-])c1,5.2,-5.4,-0.6,0.717,-1.9,-0.5,.
Cc1ccc2nc(NCCCNC(=O)c3cnccn3)c(C#N)cc2c1,-22.9,0.1,-1.8,0.686,-4.2,-0.2,7.9%
COc1ccc(CNC(=O)[C@@H](NC(=O)C2CCN(S(=O)(=O)c3ccc(C)cc3)CC2)C(C)C)cc1OC,5.9,1.4,-4.8,0.703,11.9*,1.1,.
COc1ccc(C(=O)COC(=O)/C=C/c2ccccc2)c(OC)c1,0.6,-7.7,1.8,0.637,-3.5,-0.7,20.2%

# Compound profiles, as listed above. Order of screens: UCH37 DUB inh | HNF4A DNA FP | B2AR ag | Ecoli growth | LANA-H2B inh | Bfl-1 A1 inh | Vif TR-FRET
# Shown for `CCN(CC)C(=O)Cn1nc(-c2ccc(Cl)cc2)c2ccccc2c1=O` : 1.4 | 4.8 | -9.9 | 0.671 | 1.3 | 1.0 | .
# Shown for `CN(C)C(=O)c1ccc2c3c(cccc13)CC2` : 0.3 | 0.5 | 0.6 | 0.677 | -6.0 | 0.3 | 30.8%
